High-throughput results (PubChem BioAssay)
PV pol inh – poliovirus RNA polymerase inhibition; % elongation, % (compound at 16.7 µg/mL); AID 588519; 150,000 compounds, 0.66% hits; poliovirus polymerase elongation, fluorescence polarization; hits give low values; in the data active = % elongation below about 90%; also: some results filed as inactive read as strong as hits
Target sequence (P03300 1749-2209 limits assumed): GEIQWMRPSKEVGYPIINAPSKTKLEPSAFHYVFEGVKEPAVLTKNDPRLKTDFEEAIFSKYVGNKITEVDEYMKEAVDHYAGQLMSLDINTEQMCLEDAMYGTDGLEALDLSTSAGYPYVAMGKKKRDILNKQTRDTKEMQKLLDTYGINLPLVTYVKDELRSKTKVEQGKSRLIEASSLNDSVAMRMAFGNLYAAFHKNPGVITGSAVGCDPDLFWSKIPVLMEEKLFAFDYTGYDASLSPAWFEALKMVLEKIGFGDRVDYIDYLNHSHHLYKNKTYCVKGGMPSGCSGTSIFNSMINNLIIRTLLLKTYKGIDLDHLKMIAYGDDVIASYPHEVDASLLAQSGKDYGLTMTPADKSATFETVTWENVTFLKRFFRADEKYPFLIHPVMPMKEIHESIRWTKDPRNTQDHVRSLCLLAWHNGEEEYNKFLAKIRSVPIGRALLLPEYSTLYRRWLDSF
Mtb MenB inh – inhibitors of Mycobacterium tuberculosis MenB enzyme; 100,000 compounds, 0.43% hits; AID 540299; inhibition, %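 (about 12 µg/mL by stock and volumes)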; P9WNP5; MenB enzyme assay, absorbance read-out; some hits fall short of the stated cut;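 active = mean of two replicates above 30%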;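 also: 0% = no compound and 100% = wells with inactive enzyme; the first replicate is given; strong numbers were not always called active; inactives centre near -10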
Target sequence (P9WNP5 whole entry, looked up): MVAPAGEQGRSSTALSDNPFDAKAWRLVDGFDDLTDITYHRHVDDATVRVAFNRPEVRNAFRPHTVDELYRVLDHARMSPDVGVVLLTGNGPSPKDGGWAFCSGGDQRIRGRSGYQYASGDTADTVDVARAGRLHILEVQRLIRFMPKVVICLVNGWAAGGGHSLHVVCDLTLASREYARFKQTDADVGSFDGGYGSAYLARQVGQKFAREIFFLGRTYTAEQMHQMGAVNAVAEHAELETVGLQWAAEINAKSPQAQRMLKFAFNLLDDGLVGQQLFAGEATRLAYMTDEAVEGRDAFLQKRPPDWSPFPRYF
Mtb MbtI inh – inhibitors of Mycobacterium tuberculosis siderophore enzyme MbtI. inhibition, %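 (about 17 µg/mL by stock and volumes)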. 100,000 compounds, 0.89% hits. P9WFX0. purified MbtI enzyme, fluorescence intensity read-out. AID 493033;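 active = above 50% in both replicates, above 80% if mildly self-fluorescent; inactive = the rest, strongly fluorescent compounds included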;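 also: 0% = mean of negative and 100% = mean of positive controls; one replicate is shown; some compounds called inactive have numbers as strong as hits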
PV pol inh intensity – recorded beside PV pol inh, whose call it bears; % elongation; measured here: total intensity read-out; formula for this scale not given here;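 total fluorescence in place of polarization; lower means less elongation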
Active calls of the source: *; i = inactive; . = not tested or not shown; & = joins results of further samples. Hits appear at their usual frequency (roughly 1.7% active in at least one column).

item | SMILES | PV pol inh | PV pol inh intensity | Mtb MenB inh | Mtb MbtI inh
1 | O=c1ccnc(SCc2ccccc2Cl)[nH]1 | 101 | 100 | -16 | -10&-8
2 | Nc1ccc(C(O)(C(F)(F)F)C(F)(F)F)cc1 | 103 | 107 | . | -11
3 | COC(=O)c1ccc2c(c1)nc1n2CCCC1 | 103 | 104 | -12 | 5
4 | CC(NC(=O)COc1ccccc1)C(=O)N1CCN(S(=O)(=O)c2cccs2)CC1 (configuration not stated) | 97 | 94 | -15 | 7
5 | O=C(CSc1nnc(-c2cccc(F)c2)o1)N1c2ccccc2Sc2ccccc21 | 103 | 104 | 9 | -2
6 | CCCN1C(=O)c2ccc(C(=O)NC3=NCCS3)cc2C1=O | 102 | 101 | -1 | 4
7 | Cc1ccc(NCc2nnc(SCC(=O)O)n2-c2cccc(Cl)c2)cc1 | 101 | 104 | 6 | 2
8 | COc1ccccc1CNCC(=O)Nc1cc(C)on1 | 102 | 102 | -50 | 2
9 | C=CCNC(=O)CSc1nc2ccccc2[nH]1 | . | . | 10 | 6
10 | O=C(OCc1ccccc1)C1CCN(S(=O)(=O)c2cccs2)CC1 | 101 | 95 | -15 | 8
11 | Cc1nc(N)sc1N=Nc1ccc(F)cc1 | 104 | 112 | -131 | 10
12 | N#Cc1cnn(-c2ccccc2)c1/N=C/N1CCCC1 | 100 | 104 | 5 | -5
13 | COc1ccc(/C=C/C(=O)OC2CCCCC2CN(C)C)cc1 (configuration not stated) | 101 | 97 | . | -1
14 | CC(NC(=O)Cn1ncc2ccccc21)c1ccccc1 (configuration not stated) | 101 | 107 | -2 | -4
15 | O=C(CS(=O)CC(=O)Nc1ccc2c(c1)OCCO2)Nc1ccc(Cl)cc1 (configuration not stated) | 103 | 99 | -42 | 2
16 | CCOc1ccccc1C1C(C(=O)N2CCOCC2)=C(C)Nc2nc3ccccc3n21 (configuration not stated) | 103 | 108 | -41 | -79
17 | COc1ccc(OCC(O)CNC(=O)c2sccc2Cl)cc1 (configuration not stated) | 105 | 113 | -11 | -13
18 | O=C(CC1CCOCC1)Nc1ccc(I)cc1 | 108 | 112 | -2 | .
19 | Cc1noc(N)c1C1(O)C(=O)N(CCC(C)C)c2ccccc21 (configuration not stated) | 98 | 88 | -7 | 16
20 | NC(=O)NC(=O)c1nc2nonc2[nH]c1=O | 110 | 61 | -34 | 20
21 | CN(C)c1ccc(C2/C(=C(/O)c3ccc(Cl)cc3)C(=O)C(=O)N2Cc2ccccc2)cc1 (configuration not stated) | 101 | 100 | -24 | .
22 | COc1ccc(Br)cc1CSC(=N)N | 104 | 103 | -25 | 0
23 | O=C(CSc1nnc(-c2cccs2)o1)c1ccc[nH]1 | 103 | 113 | -21 | 10
24 | CS(=O)(=O)N(CC(=O)NCC1CCCO1)Cc1ccc(Cl)c(Cl)c1 (configuration not stated) | 106 | 100 | -52 | -5
25 | O=S(=O)(NCCOc1ccccc1)c1ccc2ccccc2c1 | 103 | 98 | . | -1
26 | CC(C)(C)NC(=O)N1CCN(c2ncccc2C(F)(F)F)CC1 | 101 | 105 | -19 | -10
27 | Cc1oc2cc3oc(=O)ccc3cc2c1C | 104 | 102 | -7 | 4
28 | c1ccc(CNc2ccccn2)cc1 | 104 | 108 | . | i
29 | CN(C)c1nc2ccc(OCCN3CCOCC3)cc2s1 | 104 | 105 | -10 | .
30 | O=C(NCc1ccccc1Cl)C1(c2ccccc2)CCCC1 | 101 | 96 | -1 | .

The list goes on (6 carried over from the part before).
item | SMILES | PV pol inh | PV pol inh intensity | Mtb MenB inh | Mtb MbtI inh
25 | O=S(=O)(NCCOc1ccccc1)c1ccc2ccccc2c1 | 103 | 98 | . | -1
26 | CC(C)(C)NC(=O)N1CCN(c2ncccc2C(F)(F)F)CC1 | 101 | 105 | -19 | -10
27 | Cc1oc2cc3oc(=O)ccc3cc2c1C | 104 | 102 | -7 | 4
28 | c1ccc(CNc2ccccn2)cc1 | 104 | 108 | . | i
29 | CN(C)c1nc2ccc(OCCN3CCOCC3)cc2s1 | 104 | 105 | -10 | .
30 | O=C(NCc1ccccc1Cl)C1(c2ccccc2)CCCC1 | 101 | 96 | -1 | .
31 | CCCCn1c(=S)[nH]c2sc3c(c2c1=O)CCCC3 | 100 | 99 | -47 | 2
32 | Cc1[nH]c2ccc(CNC(=O)Nc3ccc(F)cc3F)cc2c1C | 103 | 105 | -9 | -8
33 | O=C1Nc2c(ccc(Cl)c2Cl)C(=O)C1(F)c1ccccc1 (configuration not stated) | 101 | 107 | -4 | 12
34 | O=C1CCC(C(=O)Nc2ccccc2N2CCOCC2)=NN1 | 106 | 112 | 2 | -9
35 | COc1ccccc1CNCc1ccccc1OC | 101 | 99 | 3 | -6
36 | COc1ccc(/C=C2\SC(=O)N(c3ccc(C)cc3)C2=O)cc1 | 101 | 96 | -8 | 1
37 | Cc1cc(C(=O)NNc2c(Cl)cccc2Cl)no1 | 100 | 103 | -10 | -7
38 | O=C(OCc1ccccc1)Oc1cncc(C(=O)ON2C(=O)CCC2=O)c1 | 100 | 104 | 3 | -168
39 | Cc1cccc(N(C)Cc2nnc(-c3cccc(Br)c3)o2)c1 | 106 | 108 | -4 | -8
40 | O=C1C=CC(=O)C(c2ccc(C(=O)O)cc2)=C1 | 97 | 99 | -3 | 91*
41 | COC(=O)c1ccc(COc2c(-c3ccco3)oc3ccccc3c2=O)cc1 | 102 | 104 | -21 | -4
42 | Cc1ccc(NC(=O)N2CCC(O)C2)cc1 (configuration not stated) | 105 | 104 | -1 | -2
43 | O=C(CCCc1ccccc1)N1CCN(c2ccccn2)CC1 | 103 | 101 | -60 | 83
44 | CC(C)N(C(=O)CSc1nnc(NC(=O)c2ccco2)s1)C(C)C | 99 | 101 | -20 | 10
45 | Cc1ccccc1NC(=O)Cn1nnc(-c2ccc(CN3CCC(C)CC3)cc2)n1 | 102 | 102 | 12 | -16
46 | O=C(O)C1CCCN(c2ccccn2)C1 (configuration not stated) | 103 | 112 | 14 | 90
47 | N#Cc1cnc(SCC(=O)N(C2=CCCCC2)C2CC2)nc1N | 115 | 113 | -20 | 0
48 | Cc1nc2c(ncn2-c2ccccc2)c(=O)n1NC(=O)CN1CCN(C)CC1 | 104 | 105 | -4 | -4
49 | O=C(CCS(=O)(=O)c1cc2c3c(c1)CCN3C(=O)CC2)Nc1ccccc1 | 102 | 105 | 7 | 13
50 | Cc1cnc(C(=O)Nc2nn[nH]n2)cn1 | 98 | 100 | 5 | 8
51 | Cc1ccc(CNC(=O)C2CC(=O)OC23CCCC3)c(C)c1 (configuration not stated) | 101 | 100 | -18 | -15
52 | COc1ccc2[nH]c(=O)c(CN(Cc3ccco3)C(=S)NC3CCCCC3)cc2c1 | 102 | 104 | -70 | 30
53 | CNC(=O)NC(=O)CN1CC(=O)Nc2ccccc21 | 98 | 94 | 23 | 18
54 | c1ccc(C(Sc2ccccn2)c2ccccc2)cc1 | 111 | 110 | -6 | .
55 | CN(CCOc1ccccc1)C(=O)c1ccc2c(c1)OCO2 | 107 | 106 | -2 | -18
56 | CCN(CC(=O)NC1CCS(=O)(=O)C1)C(=O)C1c2ccccc2Oc2ccccc21 (configuration not stated) | 103 | 105 | -34 | -4
57 | COc1cc2c(cc1OC)C(CC(=O)Nc1ccccc1)C(=O)N(C(C)=O)N=C2C (configuration not stated) | 104 | 98 | -24 | .
58 | CC(C)(C)SCC(=O)Nc1nc(-c2cccs2)c(-c2cccs2)s1 | 101 | 94 | -6 | 104
59 | C1CCc2nnc(C3CC3)n2CC1 | 104 | 98 | . | -1
60 | Cn1c(=O)cc(OCC(=O)N2CCC3(CC2)OCCO3)c2ccccc21 | 103 | 102 | -17 | -4
61 | CC(C)NC(=O)CN1C(=O)c2ccccc2S1(=O)=O | 104 | 101 | -8 | -4
62 | O=C(C1Cc2ccccc2C1)N1CCOCC1 | 106 | 99 | -8 | -2
63 | COc1ccc2oc(=O)c(C(=O)NCCCn3ccnc3)cc2c1 | 101 | 101 | -48 | 28
64 | CC(C)n1nccc1NC(=O)c1cc2c(s1)CCCCC2 | 103 | 99 | -8 | -1
65 | CC(=O)Nc1ccc(S(=O)(=O)N[C@@H](C)C(=O)NC2CCCc3ccccc32)cc1 (some centres not stated) | 108 | 109 | -25 | -7
66 | CC(C)(C)OC(=O)N/N=C\c1cc2c(cc1Br)OCO2 | 103 | 99 | -21 | -8
67 | Cc1ccc2[nH]c3c(N(C)C)ncnc3c2c1 | 102 | 103 | -3 | 90
68 | CCOc1ccc(CCNC(=O)C2CCCN(S(=O)(=O)N3CCCCC3)C2)cc1OCC (configuration not stated) | 102 | 103 | -10 | -26
69 | CSC1=NCC(=O)N1Cc1cccc(Cl)c1 | 110 | 106 | 12 | 1
70 | OC(CN1CCCCC1)Cn1ccc2ccccc21 (configuration not stated) | 102 | 105 | 4 | -2
71 | CCc1ccccc1N1CCN(C(=O)c2ccc(Cl)cc2)CC1 | 99 | 99 | -23 | -9
72 | CN(C)C(=S)Nc1cc(C(F)(F)F)cc(C(F)(F)F)c1 | 99 | 90 | 5 | 0
73 | COCCn1c(SCC(=O)NCc2ccccc2)nc2ccccc21 | 110 | 109 | 3 | -12
74 | Cc1cc(=O)[nH]c(SCC(=O)NCC2CCCCC2)c1C#N | 103 | 102 | -18 | 10
75 | O=C(CSc1ccccc1)N1CCN(S(=O)(=O)c2cccs2)CC1 | 101 | 104 | 10 | -2
76 | CC(C)NC(=S)NC(=O)c1cccs1 | 101 | 104 | 10 | 22
77 | COc1ccc(C(N)c2ccccc2)cc1 (configuration not stated) | 103 | 105 | -11 | .
78 | CCc1ccc(C(=O)CSc2nnc(-c3ccncc3)n2C2CC2)s1 | 114 | 106 | -3 | -12
79 | CCCSc1nnc(CSc2ncccn2)n1-c1ccc(F)cc1 | 104 | 108 | -14 | -3
80 | O=C(O)CCCn1ccnc1 | 102 | 100 | -85 | 0
81 | CCc1ccccc1N(C)C(=O)CCn1c(=S)oc2ccccc21 | 103 | 107 | -30 | -5
82 | O=C(CNC1CC1)NCc1cccs1 | 106 | 101 | -43 | -3
83 | CS(=O)(=O)Nc1cccc(C2=NN(C(=O)c3ccco3)C(c3ccccc3F)C2)c1 (configuration not stated) | 101 | 98 | -9 | 3
84 | C[C@@]12N[C@@H](Cc3ccccc31)c1ccccc12 | 102 | 100 | -8 | -16
85 | CC1CCc2cc(F)cc3c(=O)c(C(=O)O)cn1c23 (configuration not stated) | 100&100 | 101&100 | -5&-6 | -1&-4
86 | CC(C)CC(=O)N1CCC2(CC1)CC(=O)c1ccccc1O2 | 101 | 106 | -10 | 103
87 | CC(Sc1nnnn1C)C(=O)NCC1CCCCC1 (configuration not stated) | 103 | 110 | -16 | -5
88 | O=C(OCN1C(=O)c2ccccc2C1=O)c1ccc2ccccc2n1 | 101 | 97 | -5 | 4
89 | O=C(CCC1CCCC1)Nc1ccc(-c2nnc3n2CCCCC3)cc1 | 103 | 105 | -13 | -7
90 | O=C(OCc1ccc(Cl)cc1Cl)c1ccc2ccccc2n1 | 106 | 101 | 11 | -2

More structures
item | SMILES | PV pol inh | PV pol inh intensity | Mtb MenB inh | Mtb MbtI inh
91 | CCCN1CCN(C(=O)Nc2ccc(C(=O)OCC)cc2)CC1 | 99 | 102 | 4 | 6
92 | CCOc1nc2cccnc2n(CC(=O)Nc2ccccc2C(F)(F)F)c1=O | 102 | 104 | -14 | 1
93 | CCOC(=O)c1ccccc1NC(=O)Cn1ccsc1=N | 101 | 110 | -17 | 20
94 | Cc1ccc(S(=O)(=O)c2n[nH]n3c2nc(=O)c2ccccc23)cc1 | 100 | 103 | 11 | 37
95 | Cc1oc(C(C)(C)C)cc1C(=O)Nc1ccc(C(C)C)cc1 | 112 | 113 | -51 | -4
96 | O=C(c1ccccc1)N(c1ccccc1)c1ccccc1 | 107 | 112 | -8 | .
97 | CCc1ccc(OCc2n[nH]c(=S)n2CC(C)C)cc1 | 106 | 100 | -54 | 37
98 | CCNC(=S)N1CCN(C(=O)OCC)CC1 | 102 | 100 | -20 | -3
99 | O=C(Cc1ccccc1F)NCC1COc2ccccc2O1 (configuration not stated) | 103 | 106 | -13 | 0
100 | CN(C(=O)COc1ccc(Br)cc1)C1CCS(=O)(=O)C1 (configuration not stated) | 103 | 105 | . | -6
101 | O=C(O)Cn1c2ccccc2c2n[nH]c(=S)nc21 | 101 | 100 | -22 | 90*
102 | COc1ccc(C(=S)N2CCNCC2)cc1 | 102 | 104 | 8 | 15
103 | Cc1cccc(C)c1NS(C)(=O)=O | 106 | 107 | -1 | .
104 | CCC(C)NS(=O)(=O)c1ccc(N)cc1 (configuration not stated) | 102 | 102 | 1 | -20
105 | CCCN(S(=O)(=O)c1ccc(OCC)cc1)S(=O)(=O)c1cc(OC)ccc1OC | 103 | 111 | -3 | -9
106 | CCCCCn1c(=N)n(CCOc2ccccc2)c2ccccc21 | 103 | 102 | -14 | -7
107 | CC(=O)N1c2ccccc2C(=O)C1N(Cc1cccs1)C1CCCC1 (configuration not stated) | 102 | 105 | -21 | i
108 | CCOc1ccc2c(c1)n(CO)c(=S)n2CO | 103 | 105 | -1 | 32
109 | Cc1nnc(SCc2ccc3c(c2)OCO3)s1 | 98 | 106 | -18 | 1
110 | O=C(CNCCCN1CCOCC1)Nc1ccc(OC(F)(F)F)cc1 | 104 | 99 | -69 | -3
